CSC inhib – blocks cancer stem cells; cancer stem cell-like cells viability, luminescence; inhibition, % at 7.5 µM; 300,000 tested, 1.1% active;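 active means mean at 75% or more and at least half the replicates too; inconclusive means mean and replicates disagree; tested in HMLE shEcad cells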;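 further: 0% = median of negative and 100% = median of positive control wells; the first replicate is given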
eIF4H inh – inhibitors of RNA binding by human eIF4H | Q15056 | eIF4H fluorescence polarization binding assay | inhibition, % at 35 µM | 290,000 tested, 0.94% active | AID 2012;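 active means 50% or more with normal probe brightness, or confirmed in later tests; inconclusive means above 50% with abnormal brightness, or retests that disagree; inactive means below 50% or failed in later tests; about a fifth of its hits are not listed in these tables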;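 further: calls also rest on retests at 20 µM and on dose response follow-up; 0% = protein and probe with vehicle and 100% = probe without protein; strong numbers were not always called active; many hits fall short of the cut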
MT1-MMP act inh – MT1-MMP (human) activation inhibition; P50281; 360,000 tested, 0.061% active; HT1080 RFP-PRO-GFP cells, GFP/RFP ratio fluorescence, overnight; percent of plate control window, DMSO zero; GFP/RFP ratio change, % at 20 µM;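 active means GFP/RFP ratio change of at least 30% with cell ATP level not reduced by more than half and red fluorescence within 50% of control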; further: strong numbers were not always called active
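Assay system: HT1080 cells carrying an RFP-PRO-GFP reporter | Dosing: Single dose of 20 µM compound, 1% DMSO final | Incubation: Cells overnight before dosing, compound overnight, 37 °C, 5% CO2 | Evaluation: GFP/RFP fluorescence ratio | Control set: DMSO and RFP-L50D-GFP cell wells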
PABP polyA inh – PABP-poly(A) binding inhibition. 290,000 tested, 1% active. inhibition, % at 35 µM. PABP-poly(A) RNA binding, fluorescence polarization;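 active means 50% or more with normal probe brightness, or confirmed in later tests; inconclusive means above 50% with abnormal brightness, or retests that disagree; inactive means below 50% or failed in later tests; about a fifth of its hits are not listed in these tables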;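 further: calls also rest on retests at 20 µM and on dose response follow-up; controls were probe without protein and protein plus probe with vehicle; some compounds called inactive have numbers as strong as hits; many hits fall short of the cut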
Target sequence (P11940 whole entry, looked up): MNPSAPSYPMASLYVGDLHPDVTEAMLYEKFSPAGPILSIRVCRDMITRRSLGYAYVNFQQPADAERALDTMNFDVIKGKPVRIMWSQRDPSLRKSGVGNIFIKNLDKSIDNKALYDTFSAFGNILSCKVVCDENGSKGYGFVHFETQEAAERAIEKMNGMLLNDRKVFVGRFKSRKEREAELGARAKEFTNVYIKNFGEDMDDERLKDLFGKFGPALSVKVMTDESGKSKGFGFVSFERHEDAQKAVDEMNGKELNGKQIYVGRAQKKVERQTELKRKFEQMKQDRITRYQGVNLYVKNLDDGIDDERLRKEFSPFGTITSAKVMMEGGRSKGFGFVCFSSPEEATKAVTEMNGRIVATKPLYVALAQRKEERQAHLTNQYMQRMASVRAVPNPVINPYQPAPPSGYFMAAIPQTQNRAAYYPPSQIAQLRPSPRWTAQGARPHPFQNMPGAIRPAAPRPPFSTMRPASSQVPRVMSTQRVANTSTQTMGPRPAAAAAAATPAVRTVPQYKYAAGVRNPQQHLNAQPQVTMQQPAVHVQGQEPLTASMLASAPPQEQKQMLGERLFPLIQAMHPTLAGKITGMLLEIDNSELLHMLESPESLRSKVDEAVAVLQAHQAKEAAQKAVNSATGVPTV
HIV Env fusion – inhibitors of HIV Env-mediated cell fusion. HeLa-JRFL Env/CEM21 cell fusion, luciferase. inhibition, % at 12.3 µM. 360,000 tested, 1.1% active;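 active means mean replicate inhibition score of at least 50 and every replicate individually at or above 50; inconclusive means only one of the two criteria met; inactive means mean below 50 and not all replicates reaching 50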;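 further: 0% = plate neutral controls and 100% = maraviroc near 300 nM; one replicate is shown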
Rce1 inh – yeast Ras-converting enzyme inhibition. AID 2563. 290,000 tested, 0.27% active. calls only. yeast membranes, quenched prenylated peptide cleavage fluorescence;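 active means fall in fluorescence gain of 50% or more versus controls, with final raw signal at or below 3038400; inconclusive means same 50% fall but final raw signal above 3038400; inactive means fall in fluorescence gain under 50%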;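 further: plate controls were neutral control wells for no effect and wells lacking membranes for full effect; tested at 10 µM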
UUG fidelity – alters start codon recognition fidelity in yeast | S. cerevisiae UUG-firefly luciferase reporter, luminescence/redox ratio | AID 602363 | 350,000 tested, 0.13% active | activity score, % at 18.7 µM;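 active means replicate mean at a twofold rise or more, about +100% in these data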;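 further: firefly luciferase made from a UUG start codon reports start codon fidelity; reporter light over untreated wells divided by growth signal over untreated wells; some hits fall short of that in this replicate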
eIF4H inh retest – recorded beside eIF4H inh, whose call it bears; inhibition, %; compound at 20 µM; confirmation average;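 mean of two retest wells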
PABP polyA inh retest – recorded beside PABP polyA inh, whose call it bears; inhibition, %; compound at 20 µM; confirmation repeats;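 mean of two retest wells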
MT1-MMP act inh RFP – also measured in MT1-MMP act inh; calls as there; RFP signal change, %; measured here: RFP expression control read;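 0 = vehicle wells; hits needed this value within 50% of zero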
Numbers without * were called inactive; i = inactive; ? = inconclusive; nt = no result given. These rows are one share of the data (hit frequency here may not be typical).

SMILES	CSC inhib	eIF4H inh	MT1-MMP act inh	MT1-MMP act inh RFP	PABP polyA inh	HIV Env fusion	Rce1 inh	UUG fidelity	others
Cc1ccc(C(=O)c2ccc(C)cc2)cc1	-15	-2	-1	1	2	-8	i	-5
COc1cc(OC)cc(-n2nnnc2SCC(=O)NCCc2ccc(OC)c(OC)c2)c1	11	-2	1	1	5	4	i	nt
COc1ccccc1-c1csc(C(C)(NC(C)=O)c2ccccc2)n1 (stereo not drawn)	nt	nt	1	-3	nt	4	nt	-16
C=C(C)C1CC=C(C)/C(=N/NC(=O)COc2cccc3ccccc23)C1 (stereo not drawn)	10	-1	-5	-14	-11	-196	i	-24
CN(c1ccc(S(=O)(=O)N2CCOCC2)cn1)C1CCCCC1	-9	1	4	-2	5	nt	i	nt
O=C(CN(Cc1ccc(Br)cc1)S(=O)(=O)c1ccccc1)NCc1ccccn1	-10	-8	-1	-3	-10	nt	nt	12
COc1ccc(-c2c(C)nn3c(N4CCC5(CC4)OCCO5)cc(C)nc23)cc1OC	21	-9	-6	-2	-2	14	i	nt
COC(=O)C1=C(C)Nc2[nH]c(=S)[nH]c(=O)c2C1c1ccc(OC)cc1 (stereo not drawn)	-2	5	3	7	6	5	i	-15
COCCNS(=O)(=O)c1cc(F)ccc1OC	1	-8	-1	9	0	-1	i	-5
COc1ccc(-c2ccnc(SCC(=O)c3ccc(OC)c(OC)c3)n2)cc1	-7	-7	0	-5	3	9	i	nt
O=C(COc1ncnc2ccccc12)NCCc1ccc(F)cc1	-13	-10	1	1	-20	-6	i	nt
CN1CCN(C(=O)c2ccc(COc3cc(Cl)ccc3Cl)o2)CC1	36	-4	-1	-4	8	13	i	-7
CCc1cccc(NC(=O)Nc2ccc3c(c2)OCO3)c1	4	-4	2	-1	5	-23	i	-7
COCCn1c(=O)c2c(nc3n2CC(C)CN3Cc2ccccc2)n(C)c1=O (stereo not drawn)	0	-12	3	2	-1	1	i	0
Cc1onc(-c2ccccc2Cl)c1C(=O)Nc1sc2c(c1C(N)=O)CCC(C)C2 (stereo not drawn)	57	4	-8	-7	7	-47	i	-14
CC1CCN(c2c(NCC3CCC(C(=O)NCc4ccc(F)cc4)CC3)c(=O)c2=O)CC1 (stereo not drawn)	5	-1	0	2	11	4	i	5
COc1ccc(Cl)cc1NC(=O)CN(C)C(=O)c1ccc2n[nH]nc2c1	nt	nt	4	-2	nt	6	nt	-7
Cn1c(=O)[nH]c(=O)c2c1nc1n2CCCS1	-6	-3	2	5	-7	nt	i	-11
O=C(COC(=O)CCOc1ccccc1)NCCC1=CCCCC1	-8	-4	0	7	8	7	i	nt
O=C(Nc1ccc(Br)cc1)c1cnc[nH]1	-6	15	3	4	-7	-9	i	nt
C#CCN1C(C)=C(C(=O)OC)C(c2cccc([N+](=O)[O-])c2)C(C(=O)OCC)=C1C (stereo not drawn)	14	nt	-2	6	nt	-22	nt	-7
COc1ccc(C(=O)N2CCN(S(=O)(=O)c3ccc(Cl)cc3)CC2)cc1S(=O)(=O)N1CCOCC1	nt	nt	-1	-1	nt	-2	nt	8
COc1cc(C(=O)NCc2nnc(SCC(=O)N3CCCCCC3)o2)cc(OC)c1OC	-1	-17	4	4	10	1	i	-10
CCOc1ccc2nc(N3CCC(C(=O)NC4CCCCC4)CC3)sc2c1	1	-6	4	-17	12	-14	i	-6
CC(=O)c1sc(NC(=O)c2ccc3c(c2)OCO3)nc1C	12	-9	1	2	8	-93	i	-15
C#CCOCCOCCOCCNc1nc(N2CCN(C(=O)CCCCCCCCCCNC(=O)Cn3cc(C[C@@H](C)O)nn3)CC2)nc(N2CCN(C(=O)CCCCCCCCCCNC(=O)[C@@H](CCC(=O)O)n3cc(CCCCCN)nn3)CC2)n1	-4	nt	4	4	nt	-8	nt	-9
Cn1c(=O)c2c(nc(Oc3ccccc3N)n2C)n(C)c1=O	-23	-15	-2	-2	-10	7	i	18
COc1ccc(CC(NC(C)=O)C(=O)NC2CCN(C(=O)C3CCCCC3)CC2)c(OC)c1 (stereo not drawn)	4	13	0	2	11	-7	i	-7
O=C(CSc1nc2ccccc2s1)N1CCN(C(=O)c2ccco2)CC1	-6	5	-4	-2	17	nt	i	-2
Cc1ccc(C(=O)Nc2ccc3c(c2)OCO3)cc1S(=O)(=O)N1CCCC1	9	-4	-1	-12	9	nt	i	-16
CC1(C(=O)Nc2ccc3ccccc3c2)CCC(=O)N1CC(F)(F)F (stereo not drawn)	nt	nt	2	5	nt	14	nt	-9
Cc1cc(C(=O)OCC(=O)Nc2cccc(S(=O)(=O)N3CCOCC3)c2)c(C)o1	-5	-1	-6	-6	-4	-28	i	5
Cc1cc(NC(=O)CSc2nnc(-c3ccc(Cl)s3)o2)no1	-11	5	1	-7	-2	nt	i	-23
O=C(Nc1ccccc1F)C1COc2ccccc2O1 (stereo not drawn)	-17	-10	-1	0	0	?	i	-11
CN(C(=O)COC(=O)CCC(=O)c1ccc(F)cc1)C1CCCCC1	-20	nt	-3	7	nt	-1	nt	nt
CCCCn1nnnc1NCc1cc(Cl)c(OC)c(OC)c1	2	-8	4	7	1	-10	i	nt
CC(=O)NC(C)(c1ccccc1)c1nc(-c2csc3ccccc23)cs1 (stereo not drawn)	nt	nt	-6	-8	nt	10	nt	11
CN(C)/C=c1\sc2c(C#N)cc(C(=O)c3ccc(Br)cc3)n2c1=O	-12	?	1	1	?	-3	i	-43
Cc1ccc(S(=O)(=O)Nc2nc(CN3CCOCC3)nc3sc(C)c(C)c23)cc1	-8	nt	-9	2	nt	nt	nt	-4
Cc1ccc(Cn2c(Cc3ccccc3)nc3ccccc32)cc1	-10	-1	-7	-19	7	nt	i	nt
Cn1c(CNc2nc(-c3ccccc3)cs2)nnc1SCC(=O)OC1CCCCC1	-13	-3	1	0	6	nt	i	-23
NC(=O)c1ccc(NC(=O)CN2C(=O)NC3(CCCCCCC3)C2=O)cc1	-12	nt	2	-2	nt	-32	nt	-6
COc1cc(C)ccc1OCC(=O)Nc1ccc2c(c1)OCO2	0	nt	3	2	nt	-76	nt	1
CCOC(=O)CSc1nc(-c2ccccc2)nc2ccccc12	2	-8	1	-3	-9	-2	i	-15
CCn1c(SCC(=O)c2ccc3ccccc3c2)nnc1-c1cccs1	5	-4	2	1	-4	-59	i	-24
CC(NC(=O)OCc1ccccc1)c1ccccc1 (stereo not drawn)	-7	nt	-2	0	nt	-3	i	nt
CCOC(=O)C1=C(C)Nc2nc(C)nn2C1c1cc(OC)ccc1OC (stereo not drawn)	8	-1	-3	2	-7	-1	i	-15
Cc1c(C(=O)N(Cc2ccccc2Cl)C2CCS(=O)(=O)C2)oc2ccccc12 (stereo not drawn)	nt	-9	0	-9	-14	-7	i	3
Cn1c(Cc2ccc(Cl)cc2)nnc1SCC(=O)NC1CC1	-2	-11	2	2	4	nt	i	-5
Cc1nc2ccccn2c1CN(C)C(=O)C1CCC(=O)N(Cc2cccc(F)c2)C1 (stereo not drawn)	-4	-7	2	0	0	-1	i	-9
CC1C2CC(C(CN(C)C)/C2=N/O)C1(C)C (stereo not drawn)	-6	-1	-4	0	-7	-63	i	-2
O=C(Nc1nc2ccsc2c(=O)s1)c1ccco1	3	64*	-3	-2	23	-34	i	-6	eIF4H inh retest=83*;PABP polyA inh retest=13
O=C(O)c1[nH]c2ccc(Cl)cc2c1CCN1C(=O)c2ccccc2C1=O	-13	9	-10	-2	4	11	i	nt
COc1ccc(-c2cc(C(=O)N3CCC3)c3ccccc3n2)cc1OC	-14	nt	1	1	nt	-9	i	20
COc1cccc(C(=O)c2c[nH]c(C(=O)NCc3cccs3)c2)c1	26	-14	nt	nt	-8	28	i	-11
CCOc1ccccc1C(=O)NCC(=O)NCCSc1ccc(Br)cc1	nt	nt	9	-1	nt	3	nt	-18
O=C(OCC(=O)N1CCCc2ccccc21)c1ccccc1NCCO	-2	nt	-4	2	nt	0	?	-2
N/C(=N\OS(=O)(=O)c1ccccc1)c1ccccn1	-10	0	1	4	-4	nt	i	nt
C=CC1=C(C(=O)O)N2C(=O)[C@@H](NC(=O)/C(=N/OCC(=O)O)c3csc(N)n3)[C@H]2SC1	1	nt	-1	3	nt	-13	i	-17
CCCCCCCCCCCCN1[C@@H](CC(C)=O)c2cc(C(F)(F)F)ccc2S1(=O)=O	18	nt	-1	-1	nt	-18	i	-15

Going on with the list:
SMILES	CSC inhib	eIF4H inh	MT1-MMP act inh	MT1-MMP act inh RFP	PABP polyA inh	HIV Env fusion	Rce1 inh	UUG fidelity	others
CN(C)c1ccc(P(=O)(OC2CCCCC2)C(Nc2ccccc2)c2cccnc2)cc1 (stereo not drawn)	9	1	-9	-7	-12	44	i	-19
CC1(C)SC2c3ccccc3C(=O)N2[C@@H]1C(=O)NC1CCCC1 (stereo partly drawn)	-9	nt	-4	0	nt	6	i	17
Cc1ccc(-c2cc(-c3ccccc3Cl)[nH]n2)c(O)c1	112*	3	1	2	5	-223	i	-12
Cc1nnsc1C(=O)NC(=O)Nc1ccc(F)c(Cl)c1	-3	-18	3	3	0	2	i	-10
CC(NC(=O)c1cc([N+](=O)[O-])cc([N+](=O)[O-])c1)c1ccc(-n2ccnc2)cc1 (stereo not drawn)	7	-2	2	-3	2	6	i	-9
C[C@H](CO)N1C[C@H](C)[C@H](CN(C)C(=O)c2ccccc2)OCc2ccccc2-c2c(n(C)c3ccccc23)C1=O	nt	nt	-2	-1	nt	58*	nt	9

In the list so far, these contain a Cl atom.
SMILES	CSC inhib	eIF4H inh	MT1-MMP act inh	MT1-MMP act inh RFP	PABP polyA inh	HIV Env fusion	Rce1 inh	UUG fidelity	others
CN1CCN(C(=O)c2ccc(COc3cc(Cl)ccc3Cl)o2)CC1	36	-4	-1	-4	8	13	i	-7
Cc1onc(-c2ccccc2Cl)c1C(=O)Nc1sc2c(c1C(N)=O)CCC(C)C2 (stereo not drawn)	57	4	-8	-7	7	-47	i	-14
COc1ccc(Cl)cc1NC(=O)CN(C)C(=O)c1ccc2n[nH]nc2c1	nt	nt	4	-2	nt	6	nt	-7
COc1ccc(C(=O)N2CCN(S(=O)(=O)c3ccc(Cl)cc3)CC2)cc1S(=O)(=O)N1CCOCC1	nt	nt	-1	-1	nt	-2	nt	8
Cc1cc(NC(=O)CSc2nnc(-c3ccc(Cl)s3)o2)no1	-11	5	1	-7	-2	nt	i	-23
CCCCn1nnnc1NCc1cc(Cl)c(OC)c(OC)c1	2	-8	4	7	1	-10	i	nt
Cc1c(C(=O)N(Cc2ccccc2Cl)C2CCS(=O)(=O)C2)oc2ccccc12 (stereo not drawn)	nt	-9	0	-9	-14	-7	i	3
Cn1c(Cc2ccc(Cl)cc2)nnc1SCC(=O)NC1CC1	-2	-11	2	2	4	nt	i	-5
O=C(O)c1[nH]c2ccc(Cl)cc2c1CCN1C(=O)c2ccccc2C1=O	-13	9	-10	-2	4	11	i	nt
Cc1ccc(-c2cc(-c3ccccc3Cl)[nH]n2)c(O)c1	112*	3	1	2	5	-223	i	-12
Cc1nnsc1C(=O)NC(=O)Nc1ccc(F)c(Cl)c1	-3	-18	3	3	0	2	i	-10

For convenience, two of the compounds above.
SMILES	CSC inhib	eIF4H inh	MT1-MMP act inh	MT1-MMP act inh RFP	PABP polyA inh	HIV Env fusion	Rce1 inh	UUG fidelity	others
CC(NC(=O)c1cc([N+](=O)[O-])cc([N+](=O)[O-])c1)c1ccc(-n2ccnc2)cc1 (stereo not drawn)	7	-2	2	-3	2	6	i	-9
C[C@H](CO)N1C[C@H](C)[C@H](CN(C)C(=O)c2ccccc2)OCc2ccccc2-c2c(n(C)c3ccccc23)C1=O	nt	nt	-2	-1	nt	58*	nt	9
